D2 PAM: positive allosteric modulators of human D2 dopamine receptor; P14416; DiscoveRx D2 beta-arrestin cells, luminescence, 90 min; 100% = 57 uM dopamine signal; potentiation, % (concentration not given with the values); 360,000 compounds, 0.23% hits; active = potentiation of 50% or more; inconclusive = 30% to 50%; inactive = 30% or less;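 further: tested on top of an EC20 dose of dopamine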
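PathHunter beta-arrestin assay in DiscoveRx D2 cells. Compounds were added with an EC20 of dopamine (50 nM final) for 90 min at 37 deg C. Luminescence was read 1 h after detection reagent, with 57 uM dopamine as the EC100 control.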
Sfp inh: blocks B. subtilis Sfp PPTase activity; Biochemical Sfp PPTase activity, qHTS; Potency, µM, for the others: max response, negative = inhibition, most hits filed as inhibitors; 310,000 compounds, 3.5% hits; AID 1490; active means well fitted inhibition curve with a large enough effect; inconclusive means small, poorly fitted or top-dose-only effect, or another doubt; inactive means no such curve, though single readings can be large or run the other way;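 further: the enzyme is Sfp with the accession as filed and its product quenches rhodamine fluorescence; potency means the concentration at half of the fitted maximal effect; 0% = enzyme reaction without inhibitor and -100% = no enzyme wells; top concentration of the series not given in the record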
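Step 1, compound plus 15 nM Sfp-PPTase, 15 min, room temperature. Step 2, add rhodamine-CoA (5 uM) and BHQ-2-YbbR (12.5 uM). Step 3, read 525/598 nm fluorescence at 0 and 30 min.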
Menin MLL FP FL: inhibitors of human menin-MLL interaction, wild-type MLL peptide; FP activity change, % at 61.4 µM; Fluorescence polarization, fluorescein-MLL peptide displacement from menin; 290,000 tested, under 10 active; inconclusive = falling polarisation curve, or a change in total fluorescence; inactive = total fluorescence flat and polarisation flat or rising; no compound was filed as active; the % refers to the polarisation; negative = inhibition;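 further: % of control where 0% means no effect; inhibitors lower the polarisation; unlabelled MLL peptide was the positive control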
TRPV1 PAM: human TRPV1 potentiation. Q8NER1. TRPV1-expressing cells, Fluo-8 calcium influx, capsaicin EC20 potentiation; host cell line not named in the record; control for the full effect not named in the record. potentiation, % at 8.33 µM. 320,000 compounds, 0.02% hits. AID 540277; active means potentiation above 80%; inconclusive means 30% to 80%; inactive means below 30%; further: 0% is about no effect
Target sequence (Q8NER1 whole entry, looked up): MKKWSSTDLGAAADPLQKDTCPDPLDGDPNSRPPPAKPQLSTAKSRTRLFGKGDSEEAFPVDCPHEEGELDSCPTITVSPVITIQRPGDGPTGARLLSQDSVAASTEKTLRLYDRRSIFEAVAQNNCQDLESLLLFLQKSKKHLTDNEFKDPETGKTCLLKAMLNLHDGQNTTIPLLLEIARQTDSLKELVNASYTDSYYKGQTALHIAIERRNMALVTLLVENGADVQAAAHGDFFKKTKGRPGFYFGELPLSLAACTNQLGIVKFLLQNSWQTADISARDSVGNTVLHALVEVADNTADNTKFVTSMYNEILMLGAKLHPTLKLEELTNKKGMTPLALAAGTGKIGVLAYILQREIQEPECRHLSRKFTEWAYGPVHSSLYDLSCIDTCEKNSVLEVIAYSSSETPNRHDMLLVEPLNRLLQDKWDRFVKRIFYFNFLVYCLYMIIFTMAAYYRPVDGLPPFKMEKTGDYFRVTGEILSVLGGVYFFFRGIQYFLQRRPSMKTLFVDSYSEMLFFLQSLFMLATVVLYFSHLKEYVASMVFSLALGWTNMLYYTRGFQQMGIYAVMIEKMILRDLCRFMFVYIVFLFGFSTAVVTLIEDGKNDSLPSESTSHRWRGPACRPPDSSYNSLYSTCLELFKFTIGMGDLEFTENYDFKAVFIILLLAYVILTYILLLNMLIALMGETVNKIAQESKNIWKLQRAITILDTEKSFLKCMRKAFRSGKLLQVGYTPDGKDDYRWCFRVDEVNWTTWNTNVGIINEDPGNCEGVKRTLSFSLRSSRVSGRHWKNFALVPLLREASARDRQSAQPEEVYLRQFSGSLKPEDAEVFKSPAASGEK
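Fluo-8 calcium influx in TRPV1-expressing cells, kinetic read (ex 480/em 520 nm). Compound added and read 3 min for agonist activity, followed by capsaicin at EC20 final and 2 min further read for enhancement.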
gsp agonist: gsp mutant agonism. 340,000 compounds, 0.13% hits. Potency, µM (top dose mostly 76.9 µM), for inactives: top-dose activation (cAMP increase), actives largely listed as activators. gsp mutant cells, cAMP HTRF, 30 min; control for the full effect not named in the record; active = well fitted activation curve with a large enough effect; inconclusive = small, poorly fitted or top-dose-only effect, or another doubt; inactive = no such curve, though single readings can be large or run the other way; cell line not stated here;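 further: phosphodiesterase inhibitor Ro 20-1724 added with compounds to block cAMP breakdown; potency means the concentration at half of the fitted maximal effect; nearly all actives have a fitted effect of over 60% in size; about a fifth of the inactives were tested at one dose only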
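Cells stably selected in G418 were plated at 2000/well, grown 16-24 hr, then given compounds in DMSO with the PDE inhibitor […] (300 uM solution added) for 30 min at 37C; cAMP was read by HTRF.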
ClpP mod: qHTS Assay for Activators of ClpP; Potency, µM (series often up to 57.5 µM), for inactives: at the top dose activity change, negative = active; ATP-dependent Clp protease proteolytic subunit (Bacillus subtilis (strain 168)), P80244; 340,000 compounds, 1.9% hits; purified B. subtilis ClpP, FRET peptide cleavage, 20 min; active = well fitted falling curve with a large enough effect; inconclusive = small, poorly fitted or top-dose-only effect; inactive = no such curve, though single readings can be large or run the other way; further: potency means the concentration at half of the fitted maximal effect; the source files actives as falling curves though it sought activators and does not explain the sign; nearly all actives have a fitted effect of over 65% in size; many hits overshoot -100%
Target sequence (P80244 whole entry, looked up): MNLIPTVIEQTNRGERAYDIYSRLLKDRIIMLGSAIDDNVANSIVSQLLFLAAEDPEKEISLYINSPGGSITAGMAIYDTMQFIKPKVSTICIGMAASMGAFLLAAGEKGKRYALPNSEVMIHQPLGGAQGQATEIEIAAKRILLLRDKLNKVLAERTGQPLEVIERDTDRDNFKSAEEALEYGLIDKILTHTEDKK
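FRET quenching reversal measured ClpP activation: 10 microg/mL B. subtilis ClpP at pH 8 with the FRET-FV decapeptide, read at 430 nm after 320 nm excitation. The 20-min minus 0-min signal was scaled between DMSO/no-enzyme wells and ADEP (5.8 microM final).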
gsp antagonist: antagonists of gsp mutant (McCune-Albright syndrome); 340,000 compounds, 0.4% hits; AID 624288; gsp-mutant cells, cAMP HTRF, 30 min; control for the full effect not named in the record; Potency, µM (doses to about 76.9 µM), for inactives: at the top dose activity change, negative = inhibition, usual class: inhibitors; active = falling curve of any shape with a large fitted effect; inconclusive = falling curve, mostly with a smaller effect; inactive = flat or rising curve; cell line not stated here;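 further: intracellular cAMP measured with PDE inhibitor Ro 20-1724 present during compound exposure; potency means the concentration at half of the fitted maximal effect; on the % scale 0 is the no-effect control and ±100 the full control effect; nearly all actives have a fitted effect of over 65% in size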
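Measurement of cellular cAMP by homogeneous time-resolved fluorescence following a 30 min compound exposure at 37C. The PDE inhibitor […] was present throughout; the assay buffer was DPBS with 0.05% BSA and 0.005% Tween 20.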
* marks the source's active call; other numbers are inactive results; u = inconclusive; x = no result given; & = joins results of further samples; [ ] = another dose, or the depositor's remark. Compounds were not picked by outcome; 5.1% or so of the library scored in one or more.

SMILES | D2 PAM | Sfp inh | Menin MLL FP FL | TRPV1 PAM | gsp agonist | ClpP mod | gsp antagonist
COCCOC(=O)C1=C(C)NC(=S)NC1c1ccc(OCC(=O)N2CC(C)OC(C)C2)c(OC)c1 (stereo not given) | 8 | x | x | x | 22% | 0.7% | 3%
CN1C(=O)[C@@H]2C[C@@]3([C@@]45C[C@H]6C(=O)N(C)[C@@H](Cc7ccccc7)C(=O)N6[C@@H]4Nc4ccccc45)c4ccccc4N[C@H]3N2C(=O)[C@@H]1Cc1ccccc1 | -9 | x | x | -6 | u | -1.3% | -2%
Cc1ccc(C(=O)NNC(=S)NCC2CCCO2)cc1[N+](=O)[O-] (stereo not given) | -10 | 22% | x | 4 | 4% | 0.6% | 6%
Cc1cccc(C)c1OCC(=O)Nc1cc(Cl)ccc1-n1cncn1 | 4 | x | x | -20 | 17% | -1.4% | -13%
Cc1cc(-c2nnc(CCC(=O)NC(C)c3ccc(F)cc3)o2)no1 (stereo not given) | 0 | 23% | -9.1 | -1 | u | -0.1% | -2%
NNC(=O)c1sc2nc(N3CCOCC3)c3c(c2c1N)CCCC3 | -14 | 8% | 5.1 | 1 | 4% | 3.6% | -18%
CC(=O)N1CCN(S(=O)(=O)c2ccc3c(c2)CC(=O)N3)CC1 | -3 | x | x | -18 | 5% | 3.8% | 13%
CC1(c2nnc(-c3cccc(Cl)c3)o2)CC(c2ccccc2Br)=NO1 (stereo not given) | 0 | -13% | -7.1 | -12 | x | 1.1% | -10%
O=[N+]([O-])c1ccc(NCCCN2CCOCC2)c([N+](=O)[O-])c1 | -5 | -3% | -3.7 | 3 | u | x | -4%
COc1cccc(C(=O)N/N=C(/CCC(=O)O)c2ccccc2)c1 | -13 | 20% | 13 | -16 | -1% | -1.2% | 13%
C#CCNC(=O)C1=C[C@@H](c2ccc(C(F)(F)F)cc2)[C@H](CCCO)[C@@H](OCC)O1 | -3 | 10% | -4.1 | -22 | -1% | -1.5% | -16%
COc1ccccc1-c1nnc(SCC(=O)NC2CC2)n1C | 0 | x | x | 5 | -57%[inhibitor] | -1.5% | 4%
O=C(O)c1ccc(COc2ccc(/C=N/NC(=O)c3cccs3)cc2)cc1 | -8 | 8% | 1.7 | 16 | -54%[inhibitor] | -5.0% | -27%
O=C(O)/C=C/c1cccc2c1OCCO2 | -5 | 16% | 2.2 | 3 | 11% | -4.5% | 16%
Nc1c(C(=O)OCC(=O)NCc2ccccc2)[nH]c(=O)[nH]c1=O | -1 | -9% | 1.0 | -7 | 15%[15.4 µM] | x | 2%
CC(=O)c1ccccc1NS(C)(=O)=O | -8 | 19% | 0.4 | -10 | -9% | x | -1%
O=C(c1ccc(S(=O)(=O)N2CCCCC2)cc1)N1CCN(CCN2C(=O)c3cccc4cccc(c34)C2=O)CC1 | -3 | 15% | 0.4 | 0 | 12%[15.4 µM] | x | x
COc1ccc(Cl)cc1NC(=O)c1ccco1 | -15 | 11% | -1.3 | -4 | -1% | -3.0% | -15%
Cc1nc(-c2ccc3c(c2)OCO3)cs1 | 12 | -15% | 3.9 | 6 | -23% | -0.7% | -9%
CCCc1ccc(OCC(=O)O)cc1 | -4 | 5% | 1.3 | -8 | 0% | -1.0% | 0%
O=c1c(Cl)c(N/N=C/c2ccc(Cl)cc2)cnn1-c1ccccc1 | 0 | -14% | 0.6 | 9 | u | 4.5% | -10%
Cc1noc(C)c1COc1cccc(C(=O)Oc2ccc3c(c2)OCO3)c1 | 4 | -2% | 1.1 | 10 | 10% | -0.5% | -8%
CC(C)(C)c1ccc(NC(=O)COC(=O)C2CCCC2)cc1 | -2 | x | x | -11 | 16% | 0.0% | 7%
COC(=O)CSc1nccc(-c2cccs2)n1 | -8 | 15% | 1.2 | 27 | 15% | -19% | 5%
CC(C)(C)C(=O)N1CCN(c2ccc([N+](=O)[O-])cc2Cl)CC1 | -3 | x | x | x | -16% | 0.3% | u

An excerpt from above with just gsp antagonist:
canonical_smiles | gsp antagonist
COc1ccccc1-c1nnc(SCC(=O)NC2CC2)n1C | 4%
COc1cccc(C(=O)N/N=C(/CCC(=O)O)c2ccccc2)c1 | 13%

Further structures follow.
SMILES | D2 PAM | Sfp inh | Menin MLL FP FL | TRPV1 PAM | gsp agonist | ClpP mod | gsp antagonist
CC(=NNC(=O)c1cccc(S(=O)(=O)N2CCOCC2)c1)c1ccc(Cl)cc1 | -6 | x | x | x | -23% | x | -6%
O=C(NCc1ccco1)c1nn(-c2ccccc2)c(=O)c2ccccc12 | -17 | 13% | -1.3 | 5 | 11% | 0.5% | -5%
COc1ccc(S(=O)(=O)N(CCCN2CCCC2=O)Cc2cc3cc(C)c(C)cc3[nH]c2=O)cc1 | -20 | 13% | -0.6 | 0 | 19% | -0.8% | -6%
CCCCN(C(=O)c1cc2c(s1)CCCCC2)c1c(N)n(CC(C)C)c(=O)[nH]c1=O | -4 | x | x | -4 | -5%[15.4 µM] | -3.5% | 4%
CCn1c(SCC(=O)NC2CCCC2)nnc1-c1ccoc1C | -5 | 17% | 1.1 | 11 | -21% | x | 6%
CC(=O)c1ccc(S(=O)(=O)N2CCNC(=O)C2)cc1 | -20 | x | x | x | -1%[15.4 µM] | 1.9% | 8%
N#Cc1c2n(c3c(=O)n(Cc4ccccc4)cnc13)CCCC2 | -4 | -8% | -7.0 | -5 | 19% | -1.6% | 8%
CC(C)c1ccc(C2(C)NC(=O)N(CC(=O)NC3CCCC(C)C3C)C2=O)cc1 (stereo not given) | -17 | x | x | -7 | -11% | 1.0% | u
Cc1cc(C)n(-c2nc3ccccc3nc2N2CCN(C(=O)c3ccc(F)cc3)CC2)n1 | -6 | 6% | 1.7 | -8 | -2% | -7.4% | -16%
O=S(=O)(c1ccc(Br)cc1F)N1CCCCC1CCO (stereo not given) | -5 | x | x | x | x | 0.7% | 7%
CCOc1cc(/C=N\NC(=O)Cn2nc([N+](=O)[O-])cc2C)ccc1OCc1cccc2ccccc12 | 2 | u | -0.3 | 8 | 1% | 1.3% | -10%
COc1nc(-c2cccs2)cc(-c2ccc(C)cc2)c1C#N | 3 | 14% | 0.2 | 14 | 3% | 4µM* | -1%
O=C(CSc1nc2c(c(C(F)(F)F)n1)CCc1ccccc1-2)NCc1ccco1 | -21 | -29% | 2.4 | -19 | 1% | 14% | 37%[activator]
CC[N+]1(C)CCC(O)(c2ccc(OC)cc2)C(C(=O)c2ccc(OC)cc2)C1 (stereo not given) | -19 | x | x | x | -55%[inhibitor] | -1.6% | 7%
CN1CCN(c2ccc(S(=O)(=O)N3CCOCC3)cc2NC(=O)COc2ccc(F)cc2Cl)CC1 | -11 | 4% | x | 1 | -8% | -6.2% | 22%
Cc1ccc(/C([O-])=C(/C(=S)Nc2ccc(SC(F)F)cc2)[n+]2ccccc2)cc1[N+](=O)[O-] | -2 | 13µM* | -2.1 | -1 | 0% | 0.7% | -5%
CCn1nc(NS(=O)(=O)c2ccc([N+](=O)[O-])cc2)c2cc3cc(C)ccc3nc21 | -6 | 14% | x | u | -2% | 1.6% | u
C/C(=N\NS(=O)(=O)c1ccc([N+](=O)[O-])cc1)c1ccc(NC(=O)c2ccco2)cc1 | 1 | -16% | -5.7 | 27 | -9%[15.4 µM] | x | -20%
CC(=O)NCCOC(=O)Nc1sc(=S)n(C)c1C | -8 | -12% | 2.2 | -2 | 0% | -0.7% | -4%
COc1ccc(N=Cc2oc3ccc4ccccc4c3c2O)cc1 | -10 | -6% | u | 23 | 19% | x | -3%
COc1cc(NS(=O)(=O)c2ccc(NC(=S)NC(=O)/C=C/c3ccc(F)cc3)cc2)ncn1 | -6 | -8% | 1.2 | -8 | 2% | -1.0% | u
CC(C)CNC(=O)c1ccccc1C(=O)NC1(C(=O)NCC(C)C)CCCC1 | 2 | x | x | x | 0%[15.4 µM] | 2.1% | 3%
COc1ccc(CC2CC(=O)N(c3ccc(C)cc3)C2=O)cc1 (stereo not given) | -2 | 6% | -0.6 | 3 | -32%[inhibitor] | x | 3%
O=C(CSc1nnnn1-c1cccnc1)NCc1cccs1 | -4 | 1% | 2.8 | 3 | -47%[inhibitor] | -0.1% | 8%
O=C(COc1ccc(Cl)cc1)NCCN1CCCC1 | -3 | 3% | -3.6 | -6 | 24% | -1.7% | 0%
SMILES | D2 PAM | Sfp inh | Menin MLL FP FL | TRPV1 PAM | gsp agonist | ClpP mod | gsp antagonist
CC(C)c1ccc(NC(=O)CN2C(=O)c3ccccc3S2(=O)=O)cc1 | -5 | 2% | -0.6 | 4 | -26%[15.4 µM] | x | -20%
O=C(NCCC1=CCCCC1)C1CCC(=O)N(Cc2ccc(Cl)cc2)C1 (stereo not given) | -12 | 0% | x | -14 | -30% | 0.2% | -4%
COc1ccc(CCNC(=O)c2cc(COc3c(F)cccc3F)on2)c(OC)c1 | -6 | 5% | -4.9 | -6 | u | u | -21%
c1ccc(OCCCN2CCCC2)cc1 | -21 | 11% | 0.2 | 17 | -14% | 0.2% | 4%
Nc1ncnc2c1ncn2C1CCCO1 (stereo not given) | -5 | 4%&11% | -1.5&1.2 | 3 | x | 1.9% | -19%
Cc1nc(-c2ccc(S(=O)(=O)N3CCCCCC3)cc2)cs1 | 19 | -5% | -3.5 | 0 | -3% | 0.1% | -7%
O=C(c1cccc(-c2ccccc2)c1)N1CC[C@@H](N2CCC(O)CC2)[C@H](O)C1 | 2 | 9% | x | -18 | -1% | -0.2% | 3%
C=CCSc1nc2ccccc2n1C(=O)/C=C/c1ccc(OC)c(OC)c1 | -7 | 28µM* | 2.7 | -6 | -6% | 3.5% | 6%
Cc1c(NC(=S)Nc2ccc(Cl)cc2)c(=O)n(-c2ccccc2)n1C | -3 | 16% | 4.0 | 6 | 0% | 0.8% | 12%
COC(=O)C(Cc1ccccc1)NC(=O)CNC(=O)c1ccccc1OC (stereo not given) | -6 | 0% | -1.2 | 2 | 6%[15.4 µM] | x | 8%
CC(=O)Nc1cccc(C(=O)Nc2ccc(S(=O)(=O)NC3=NCCCCC3)cc2)c1 | -9 | x | x | 7 | u | -1.1% | 9%
CC12CCC(C(=O)NCC3CCCO3)(OC1=O)C2(C)C (stereo not given) | -3 | 29% | 0.8 | -5 | 4% | -22% | -10%

Screening results: PubChem, National Center for Advancing Translational Sciences (NCATS)
